Bioassay records: PubChem BioAssay, National Center for Advancing Translational Sciences (NCATS)
NS1 inh – influenza NS1 inhibition; S. cerevisiae slowed by influenza A NS1, growth recovery by OD600; Potency, µM (doses to about 46.1 µM), without a hit: at the highest dose activity, positive = more growth; 270,000 tested, 0.4% active; further: actives are rising curves; nearly all actives have a fitted effect of over 50% in size
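Compounds were scored for reversing the slow growth caused by influenza A NS1 in S. cerevisiae, measured by optical density at 600 nm. Assay medium contained 2% galactose at pH 6.0; NS1-free yeast of the same strain were the positive control.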
RE007 growth inh – less growth of the S. pombe RE007 Vpr strain; S. pombe RE007 Vpr strain, BacTiter-Glo ATP luminescence, 24 h; control for the full effect not named in the record; Potency, µM (titrated, usually from 92.2 µM), for inactives: at the top dose activity change, negative = less growth; 360,000 tested, 0.21% active; AID 651644; active = well fitted falling curve with a large enough effect; inconclusive = small, poorly fitted or top-dose-only effect; inactive = no such curve, though single readings can be large or run the other way;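 further: on the % scale 0 is the no-effect control and ±100 the full control effect; nearly all actives have a fitted effect of over 50% in size; the assay follows cell death caused by Vpr and the record does not say whether a fall means rescue or toxicity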
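Fission yeast RE007 carrying one integrated HIV-1 vpr copy, seeded at OD 0.01 in PMG+AL medium with 23 nL pinned compound. Grown 24 h at 30 degrees; viability read by BacTiter-Glo luminescence after 5 min.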
2A StopGo – lowers the luciferase signal of an FMDV 2A StopGo reporter. human cells with a luciferase reporter of 2A StopGo recoding; control for the full effect not named in the record. Potency, µM (top dose mostly 57.9 µM), without a hit: at the highest dose signal change, negative = less light. 410,000 tested, 1.2% active. AID 1159524; active = well fitted falling curve with a large enough effect; inconclusive = small, poorly fitted or top-dose-only effect; inactive = no such curve, though single readings can be large or run the other way; tested in HEK293T cells; further: on the % scale 0 is the no-effect control and ±100 the full control effect; nearly all actives have a fitted effect of over 45% in size; luciferase light after 4 h
Cruzain noTriton – cruzain (T. cruzi) inhibition without detergent | P25779 | purified cruzain, Z-FR-AMC fluorescence, no detergent | Potency, µM, for inactives: max response, negative = inhibition, usual class: inhibitors | 200,000 tested, 2.3% active | AID 1476; active means well fitted curve in the direction sought with a large enough effect; inconclusive means small, poorly fitted or top-dose-only effect, or another doubt; inactive means no such curve, though single readings can be large; an effect the other way counts as inactive or inconclusive;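 further: plate controls were enzyme without inhibitor for no effect and buffer without enzyme for full effect; nearly all actives have a fitted effect of over 40% in size; top concentration of the series not given in the record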
Target sequence (P25779 123-467 limits assumed): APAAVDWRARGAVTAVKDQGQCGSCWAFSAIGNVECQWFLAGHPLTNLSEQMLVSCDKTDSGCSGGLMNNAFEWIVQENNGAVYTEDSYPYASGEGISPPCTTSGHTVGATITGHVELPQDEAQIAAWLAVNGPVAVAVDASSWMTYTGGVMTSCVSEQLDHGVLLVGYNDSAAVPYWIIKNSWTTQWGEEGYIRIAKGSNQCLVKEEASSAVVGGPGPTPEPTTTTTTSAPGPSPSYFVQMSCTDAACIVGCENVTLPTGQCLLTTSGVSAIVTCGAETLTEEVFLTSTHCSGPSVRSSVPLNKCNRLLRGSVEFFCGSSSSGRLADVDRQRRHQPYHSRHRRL
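Detergent-free condition (0.00005% Triton X-100) in acetate buffer pH 5.5 with DTT. 1.5 nM enzyme and compound were pre-mixed 15 min, then 2 uM Z-FR-AMC substrate added; reaction progress from fluorescence change between first and third reads (60 s).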
LASV entry inh – Lassa virus entry inhibition; 300,000 tested, 1.2% active; Lassa virus pseudotype entry inhibition, cell reporter; control for the full effect not named in the record; Potency, µM (highest dose often 37.9 µM), for the others: at the highest dose activity change, negative = inhibition, most hits filed as inhibitors; active means well fitted inhibition curve with a large enough effect; inconclusive means small, poorly fitted or top-dose-only effect, or effect the other way; inactive means flat fitted curve, though single readings scatter; tested in HEK293 cells; further: on the % scale 0 is the no-effect control and ±100 the full control effect; nearly all actives have a fitted effect of over 50% in size; luciferase read-out
Cruzain inh Det – inhibitors of Trypanosoma cruzi cruzain with detergent; 200,000 tested, 0.43% active; purified cruzain, Z-FR-AMC fluorescence, 0.01% Triton; Potency, µM, for inactives: max response, negative = inhibition, most hits filed as inhibitors; active means well fitted curve in the direction sought with a large enough effect; inconclusive means small, poorly fitted or top-dose-only effect, or another doubt; inactive means no such curve, though single readings can be large; an effect the other way counts as inactive or inconclusive;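 further: plate controls were neutral wells for no effect and buffer without enzyme for full effect; nearly all actives have a fitted effect of over 40% in size; top concentration of the series not given in the record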
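Steps: dispense cruzain (1.5 nM final) in acetate buffer pH 5.5 with DTT and 0.01% Triton X-100; pin-transfer compounds; incubate 15 min RT; add Z-FR-AMC (2 uM final); read fluorescence every 30 s, using the 60 s intensity change.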
Marburg entry inh – Marburg virus entry inhibition; Potency, µM (doses to about 37.8 µM), without a hit: top-dose activity change, negative = inhibition, hits mostly inhibitors; 300,000 tested, 1.8% active; Marburg virus pseudotyped entry inhibition, cell reporter; control for the full effect not named in the record; about a third of the inactives were read at about 46 µM; active = well fitted inhibition curve with a large enough effect; inconclusive = small, poorly fitted or top-dose-only effect, or effect the other way; inactive = flat fitted curve, though single readings scatter; tested in HEK293 cells; about a fifth of its hits are not listed in these tables; further: on the % scale 0 is the no-effect control and ±100 the full control effect; luciferase read-out
SARS PLP yeast – inhibitors of SARS-CoV papain-like protease in yeast; S. cerevisiae expressing SARS-CoV PLpro, growth rescue; control for the full effect not named in the record; Potency, µM (series often up to 32.9 µM), inactives show at the top dose activity, positive = growth rescue; 330,000 tested, 0.19% active; AID 485353; further: 0% is about no effect; nearly all actives have a fitted effect of over 55% in size; growth read by luminescence after 48 h
Starred values were filed as active, the others as inactive; ? = inconclusive; / = not tested or not shown; & = joins results of further samples; [ ] = dose if it differs, or a comment. Unless noted, the call rests on the fitted dose curve; in most records, active means well fitted rising curve with a large enough effect; inconclusive means small, poorly fitted or top-dose-only effect; inactive means no such curve, though single readings can be large or run the other way. Potency means the concentration at half of the fitted maximal effect. Rows are unselected; any-hit rate near 4.7%.

SMILES	NS1 inh	RE007 growth inh	2A StopGo	Cruzain noTriton	LASV entry inh	Cruzain inh Det	Marburg entry inh	SARS PLP yeast
CC(=O)Nc1ccc(CC(=O)N2CCN(Cc3ccccc3)CC2)cc1	-9%	4%	-9%	/	23%	/	-8%[46.1 µM]	0%
COc1cc(C(=O)NC(=S)Nc2nccs2)cc(OC)c1OC	-3%	1%	1%	/	18%[46.1 µM]	/	27%[46.1 µM]	-1%
COc1ccc(CC(=O)NNC(=O)COc2ccc(C)cc2)cc1S(=O)(=O)N1CCOCC1	/	7%	2%	/	-1%	/	4%[46.1 µM]	1%
COc1ccc2[nH]c3c(c2c1)CCN1C(=O)N([C@@H](C)C(=O)NCC2CCCO2)C(=O)[C@]31C (stereo partly specified)	-1%	-17%	-28%	/	/	/	/	1%
CCOc1ccc(C2C(=O)N(C3CCCCCC3)CC(=O)N2CCc2ccc(Cl)cc2)cc1OC (stereo unspecified)	/	/	0%	-1%	?	0.0%	/	/
N=C1SC(c2ccccc2)C(=O)N1c1ncc(Cc2ccccc2)s1 (stereo unspecified)	15%	-3%	?	7.9µM*	?	1.6%	?	-5%
CC1CN(C(=O)Nc2ccc(C(=O)NCCc3ccccc3)cc2)c2ccccc2S1 (stereo unspecified)	/	/	-10%	-5%	22%[46.1 µM]	4.2%	?	/
NC(=O)CNC(=O)[C@@H]1CC2(CC(c3cccc([N+](=O)[O-])c3)=NO2)CN1C(=O)c1ccccc1 (stereo partly specified)	-7%	8%	-7%	-1%	/	2.1%	-4%	10%
O=C(/C=C/c1cccc([N+](=O)[O-])c1)Nc1cccc(NC(=O)c2cccs2)c1	?	3%	?	?	?	-4.2%	?	6%
Cc1cc2ncn(C(=O)N3CCCCC3)c2cc1C	-39%	-7%	34%[activator]	-5%	?	-0.4%	6%	0%
Cn1cc(CN2CCN(Cc3ccccc3)C(CCO)C2)c(-c2ccccc2)n1 (stereo unspecified)	-2%	-9%	-9%	/	/	/	/	-2%
CC1(C)NC(=O)N(CC(O)COc2cccc(F)c2)C1=O (stereo unspecified)	-10%	8%	-22%	0%	/	1.7%	/	-1%
Cc1nc(NCc2ccccn2)c2ccccc2n1	2%	-5%	?	-9%	-43%	2.0%	?	2%
O=C(Nc1ccccc1)Nc1nc2ccccc2s1	-6%	0%	-6%	/	?	/	?	0%
COc1ccc(F)cc1C(=O)C1CCCN(Cc2ccc(Sc3nncn3C)o2)C1 (stereo unspecified)	5%	10%	-11%	/	/	/	/	0%
CCOc1ncccc1C(=O)Nc1cc(S(=O)(=O)N2CCCCCC2)ccc1OC	/	-5%	-14%	/	-2%	/	-16%	-2%
Cc1ccccc1Cn1ccc(NC(=O)c2nn(C)cc2[N+](=O)[O-])n1	16%	5%	-20%	-7%	-12%	-2.1%	-13%	3%
CN(C)c1ccc(/C=N/N2C(=O)c3ccccc3C2=O)cc1	-8%	23%	45%[activator]	/	/	/	/	2%
COc1ccc(CN2C(=O)CCC2(C)C(=O)NCc2cccnc2)c(OC)c1 (stereo unspecified)	5%	7%	2%	1%	15%	-4.1%	20%	2%
Cc1ccnc(SCc2cc(=O)c(OC(=O)c3ccco3)co2)n1	11%	0%	14%	-18%	28%	-28%	-8%	-1%
Cc1ccnc(NC(=O)CCCNC(=O)c2ccc(Cl)cc2)c1	/	-4%	20%	/	25%	/	26%[46.1 µM]	1%
CCN(C(=O)CSc1nncn1-c1ccccc1)C1CCS(=O)(=O)C1 (stereo unspecified)	/	8%	-12%	/	4%[46.1 µM]	/	-12%	3%
CCn1c2ccccc2c2cc(NC(=O)COc3ccc(C)cc3C)ccc21	/	/	-14%	?	26%[46.1 µM]	-5.8%	16%[46.1 µM]	/
COc1ccc(N(CCCN2C(=O)c3cccc4cccc(c34)C2=O)C(=O)c2ccncc2)cc1	/	167%	-14%	/	-5%[46.1 µM]	/	?	1%
COc1cc(N)c(Cc2nccc3cc(OC)c(OC)cc23)cc1OC	6%	2%	-26%	/	?	/	-15%[46.1 µM]	-1%
COc1cccc(CN2CCNCC2)c1	14%	-3%	-2%	/	4%[46.1 µM]	/	-23%[46.1 µM]	9%
COc1ccc(COC(=O)CNC(=O)C2CCCCC2)cc1F	/	-12%	-7%	/	15%	/	-10%	-5%
CC(=O)c1c(CC(=O)O)[nH]n(-c2nc3ccccc3s2)c1=O	2%	?	29%	-3%	11%	-5.6%	9%	-17%
COCC1CCN(C(=O)c2cc(COc3ccc(-n4cncn4)cc3)on2)C1 (stereo unspecified)	-23%	-24%	-5%	/	-4%	/	10%	3%
CCOc1cc(S(=O)(=O)NCCc2ccc(OC)c(OC)c2)c(OCC)cc1-n1cnnn1	-4%	12%	8%	5%	-24%	1.5%	-2%	0%
Cc1ccccc1CN(c1ccc(C(=O)NCC2CCCO2)cc1)S(C)(=O)=O (stereo unspecified)	-8%	9%	-13%	-1%	?	-3.8%	?	4%
O=C(O)CCC(=O)NNC(=O)c1ccc(Br)cc1	11%	9%	-17%	-2%	5%	0.6%	3%	0%
Cn1ncc(Br)c1NC(=O)c1cc(Cl)cc(Cl)c1	-7%	-7%	-13%	/	/	/	/	0%
O=S(=O)(c1ccc(Cl)c(F)c1)N1CCC(c2nc(-c3ccncc3)no2)CC1	-1%	-1%	?	-4%	-4%	5.0%	-19%	6%
Cc1ccc(OCC(=O)N2CCOCC2)c([N+](=O)[O-])n1	3%	7%	-11%	/	-6%	/	2%[46.1 µM]	1%
COCCn1c(=NC(=O)c2ccc3c(c2)OCCO3)sc2cc(NC(C)=O)ccc21	/	/	1%	-4%	?	1.3%	/	/
O=C(NC1CCCC1)c1cc(-c2ccc(Cl)c(Cl)c2)on1	0%	18%	0%	/	-6%	/	6%	1%
CCOc1ccc(C(=O)/C=C/Nc2ccc(S(=O)(=O)Nc3onc(C)c3C)cc2)cc1	-38%	10%	11%	-10%	-9%	-8.2%	19%	-6%
COC(=O)c1cc(OC)c(OC)cc1NC(=O)c1cc(OC)cc(OC)c1	-2%	20%	-21%	/	5%	/	?	-1%
Cc1coc(NC(=O)CSc2nc(-c3ccc(Cl)cc3)cc(C(F)(F)F)c2C#N)n1	11%	-5%	8%	?	0%	9.0%	?	-6%
O=C(NCc1ccccc1)Oc1cccc(Cl)c1	-6%	?	57%[activator]	-3%	22%	-5.8%	1%	-28%
CC(C)(C)OC(=O)N1CCC(c2c(C(=O)Nc3ccc4c(c3)OCCO4)cnn2-c2ccc(Cl)cc2)CC1	/	/	?	0%	-1%[46.1 µM]	-7.1%	/	/
Cn1c(CSCc2ccccc2)nnc1SCC(=O)Nc1ccc(C(=O)O)cc1	11%	-10%	-5%	/	?	/	-20%[46.1 µM]	1%
O=C1COc2ccc(C(=O)COC(=O)Cn3cnc4ccccc43)cc2N1	6%	-22%	19%	-9%	?	-0.7%	4%	1%
N#CCSc1nnc(CNc2ccc(F)cc2)o1	0%	1%	2%	-1%	11%	-0.4%	2%	-14%
CCN=C(Nc1ccc(Cl)cc1)c1cccnc1	8%	13%	-8%	-7%	2%	-1.6%	0%	-3%
CN1C(=O)C(=Cc2ccc(OCC(=O)Nc3ccccc3)cc2)C(=O)N(C)C1=O	4%	1%	26%	/	-11%	/	3%	11%
NS(=O)(=O)c1cccc(NC(=O)COC(=O)c2cc(-c3ccc(Cl)cc3)nc3ccccc23)c1	?	-2%	5%	11%	/	-2.8%	/	29%
O=C(COc1ccc(/C=N/NC(=O)c2ccc(O)cc2)cc1)Nc1ccc([N+](=O)[O-])cc1	2%	-4%	0%	-9%	6%	-3.1%	-2%	8%
Oc1ccccc1Nc1ccccn1	?	11%	47%[activator]	/	?	/	?	-3%
Oc1c(CN2CCCCC2)cc(COCc2ccccc2)c2cccnc12	-84%	?	-28%	-8%	2.2µM*	8.9%	?	5%&-5%
CCC(=O)NC(=S)Nc1cccc(Cl)c1N1CCCC1	3%	-8%	-20%	/	/	/	/	1%
COc1cccc(C(=O)Nc2ccccc2-c2nnc(-c3ccc(C(C)(C)C)cc3)o2)c1	/	/	7%	-11%	21%[46.1 µM]	0.5%	-6%[46.1 µM]	/
COc1ccc(-n2c(=S)[nH]c3cc(C(=O)NCc4cccnc4)ccc3c2=O)cc1	5%	33%	?	/	?	/	14%[46.1 µM]	16%
C[C@H](NC(=O)[C@@H]1Cc2ccccc2CN1)C(=O)NC[C@H]1CC[C@H](C(=O)O)CC1	0%	-1%	-20%	/	/	/	/	-1%
O=C(NCCCN1CCOCC1)c1ccccc1	5%	13%	-23%	4%	15%	3.0%	3%	5%
CCOC(=O)N1CCN(Cc2nc3cc([N+](=O)[O-])ccc3n2CC)CC1	-5%	3%	-21%	/	/	/	/	0%
Cc1ccccc1OCC(=O)Nc1ccccc1N1CCCCC1	-46%	-12%	?	-10%	-9%	-0.9%	?	-17%
Cc1cccn2c(=O)c(C=O)c(N3CC(C)OC(C)C3)nc12 (stereo unspecified)	4%	15%	4%	/	-1%[46.1 µM]	/	0%[46.1 µM]	0%
CC(=O)NC(=S)Nc1ccc(NC(=S)NC(=O)c2ccc([N+](=O)[O-])cc2)cc1	0%	-10%	61%[activator]	/	16%	/	3%[46.1 µM]	3%

Going on with the list:
SMILES	NS1 inh	RE007 growth inh	2A StopGo	Cruzain noTriton	LASV entry inh	Cruzain inh Det	Marburg entry inh	SARS PLP yeast
NC(=O)CC[C@H](NC(=O)c1ccc(F)cc1)C(=O)OCC(=O)NCc1ccc(F)cc1	0%	2%	7%	/	-3%	/	7%[46.1 µM]	2%
COc1ccc(/C=N/NC(=O)Cn2cnc3ccccc3c2=O)cc1OC	12%	32%	15%	-10%	15%	-4.5%	-6%	4%
CCN1CCN(C(=O)c2ccc3c(c2)N(Cc2cc(C)ccc2C)C(=O)c2ccccc2S3(=O)=O)CC1	/	/	4%	17%	-21%[46.1 µM]	2.4%	?	/
CN1CCN(C(=O)COc2ccc(Oc3ccccc3)cc2)CC1	-1%	-11%	0%	/	5%	/	-17%[46.1 µM]	1%
Cc1ccccc1C(=O)N1CCC(C(=O)NC(C)c2ccc(-n3ccnc3)cc2)CC1 (stereo unspecified)	10%	-5%	-23%	/	25%	/	10%	1%
FC(F)(F)c1cc(-c2ccccc2)nc2nc(N3CCOCC3)sc12	/	-9%	-14%	/	-6%	/	19%	2%
